Screens deposited in PubChem BioAssay by National Center for Advancing Translational Sciences (NCATS).
TRPML1 blocker: qHTS for Inhibitors of the Human Mucolipin Transient Receptor Potential 1 (TRPML1) | TRPML1-inducible cells, Ca2+ dye fluorescence, FDSS; active compounds read low; inhibition of EC80 agonist-evoked calcium signal | activity change, negative = inhibition, % (test concentration not listed) | 390,000 compounds, 0.02% hits; in the data active means activity change below about -50%; inconclusive means about -30% to -50%; inactive means above about -30%;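 note: stimulus is agonist 54-4 at its EC80 concentration; % is set by controls: 0 for no effect and ±100 for the full control effect; compound concentration not given in the record; the text of the record puts the active cut at -80%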
Target sequence (Q9GZU1 whole entry, looked up): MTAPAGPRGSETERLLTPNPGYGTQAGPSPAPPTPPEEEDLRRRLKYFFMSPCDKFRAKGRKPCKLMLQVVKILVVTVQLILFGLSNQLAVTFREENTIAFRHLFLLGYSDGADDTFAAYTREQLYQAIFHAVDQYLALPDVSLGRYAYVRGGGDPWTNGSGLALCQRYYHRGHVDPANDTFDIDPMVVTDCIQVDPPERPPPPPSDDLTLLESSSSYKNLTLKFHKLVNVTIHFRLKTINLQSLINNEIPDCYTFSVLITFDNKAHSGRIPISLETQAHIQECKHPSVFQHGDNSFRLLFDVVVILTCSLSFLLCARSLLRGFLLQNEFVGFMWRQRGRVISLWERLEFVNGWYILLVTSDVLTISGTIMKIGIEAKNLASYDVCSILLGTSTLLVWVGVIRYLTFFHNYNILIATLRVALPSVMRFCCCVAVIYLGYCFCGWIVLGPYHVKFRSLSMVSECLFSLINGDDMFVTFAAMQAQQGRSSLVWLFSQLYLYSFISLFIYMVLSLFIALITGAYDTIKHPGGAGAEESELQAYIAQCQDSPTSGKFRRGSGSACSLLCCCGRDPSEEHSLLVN
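TRPML1-DL cells, Tet-induced overnight (~16 h, 37 °C) at 1,500 cells/well, were loaded with Ca8 no-wash dye plus quencher for 45-90 min at room temperature. Compounds were pinned during FDSS kinetic reading; agonist 54-4 at EC80 (4 uM final) then added.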
gsp agonist: qHTS for Agonist of gsp, the Etiologic Mutation Responsible for Fibrous Dysplasia/McCune-Albright Syndrome: qHTS; 340,000 compounds, 0.13% hits; Potency, µM (titrated, usually from 76.9 µM), without a hit: at the highest dose activation (cAMP increase), hits mostly activators; AID 624287, 2012; gsp mutant cells, cAMP HTRF, 30 min; control for the full effect not named in the record; active = well fitted activation curve with a large enough effect; inconclusive = small, poorly fitted or top-dose-only effect, or another doubt; inactive = no such curve, though single readings can be large or run the other way; cell line not stated here;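 note: phosphodiesterase inhibitor Ro 20-1724 added with compounds to block cAMP breakdown; potency is the fitted concentration of half-maximal effect; nearly all actives have a fitted effect of over 60% in size; about a fifth of the inactives were tested at one dose only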
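Cells stably selected in G418 were plated at 2000/well, grown 16-24 hr, then given compounds in DMSO with the PDE inhibitor […] (300 uM solution added) for 30 min at 37C; cAMP was read by HTRF.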
TRPV1 potentiator: HTS Assay for Compounds that Act as Potentiators of the Vanilloid Receptor 1; Transient receptor potential cation channel subfamily V member 1 (Homo sapiens), Q8NER1; TRPV1-expressing cells, Fluo-8 calcium influx, capsaicin EC20 potentiation; host cell line not named in the record; control for the full effect not named in the record; potentiation, % at 8.33 µM; 320,000 compounds, 0.02% hits; AID 540277, 2011; active means potentiation above 80%; inconclusive means 30% to 80%; inactive means below 30%; note: 0% is about no effect
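Cells expressing TRPV1 were dye-loaded with Fluo-8 and read kinetically: 10 s baseline, 3 min after compound (agonist portion), then 2 min after EC20 capsaicin (allosteric enhancer portion). Calcium-bound dye fluorescence at 480/520 nm.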
Menin-MLL FL inh: qHTS Assay for Inhibitors Targeting the Menin-MLL Interaction in MLL Related Leukemias: Competition With Fluorescein Labeled MLL-derived Peptide | Fluorescence polarization, fluorescein-MLL peptide displacement from menin | FP activity change, % at 61.4 µM | 290,000 tested, under 10 active; inconclusive = falling polarisation curve, or a change in total fluorescence; inactive = total fluorescence flat and polarisation flat or rising; no compound was filed as active; the % refers to the polarisation; negative = inhibition;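 note: % of control where 0% means no effect; inhibitors lower the polarisation; unlabelled MLL peptide was the positive control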
ClpP mod: qHTS Assay for Activators of ClpP; ATP-dependent Clp protease proteolytic subunit (Bacillus subtilis (strain 168)), P80244; purified B. subtilis ClpP, FRET peptide cleavage, 20 min; 340,000 compounds, 1.9% hits; Potency, µM (highest dose often 57.5 µM), inactives show at the top dose activity change, negative = active; AID 651965, 2013; active = well fitted falling curve with a large enough effect; inconclusive = small, poorly fitted or top-dose-only effect; inactive = no such curve, though single readings can be large or run the other way; note: potency is the fitted concentration of half-maximal effect; the source files actives as falling curves though it sought activators and does not explain the sign; nearly all actives have a fitted effect of over 65% in size; many hits overshoot -100%
Target sequence (P80244 whole entry, looked up): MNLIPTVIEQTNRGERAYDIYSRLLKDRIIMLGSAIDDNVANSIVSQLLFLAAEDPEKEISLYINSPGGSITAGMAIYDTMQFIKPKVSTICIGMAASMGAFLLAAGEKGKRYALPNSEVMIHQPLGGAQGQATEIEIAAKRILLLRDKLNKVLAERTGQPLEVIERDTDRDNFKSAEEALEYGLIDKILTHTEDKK
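Buffer: 100 mM Tris/HCl pH8, 100 mM KCl, 0.05% low protease BSA, 2.5% glycerol, 0.01% Tween-20. ClpP 10 microg/mL final; 20 min RT; delta FRET normalized to ADEP and DMSO controls.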
gsp antagonist: qHTS for Antagonists of gsp, the Etiologic Mutation Responsible for Fibrous Dysplasia/McCune-Albright Syndrome: qHTS. gsp-mutant cells, cAMP HTRF, 30 min; control for the full effect not named in the record. Potency, µM (top dose mostly 76.9 µM), for the others: at the top dose activity change, negative = inhibition, most hits filed as inhibitors. 340,000 compounds, 0.4% hits. AID 624288, 2012; active = falling curve of any shape with a large fitted effect; inconclusive = falling curve, mostly with a smaller effect; inactive = flat or rising curve; cell line not stated here;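 note: intracellular cAMP measured with PDE inhibitor Ro 20-1724 present during compound exposure; potency is the fitted concentration of half-maximal effect; % is set by controls: 0 for no effect and ±100 for the full control effect; nearly all actives have a fitted effect of over 65% in size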
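Measurement of cellular cAMP by homogeneous time-resolved fluorescence following a 30 min compound exposure at 37C. The PDE inhibitor […] was present throughout; the assay buffer was DPBS with 0.05% BSA and 0.005% Tween 20.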
Sfp inh: qHTS Assay for Inhibitors of Bacillus subtilis Sfp phosphopantetheinyl transferase (PPTase) | 4'-phosphopantetheinyl transferase ffp (Bacillus subtilis), Q9F4F7 | Biochemical Sfp PPTase activity, qHTS | Potency, µM, for inactives: max response, negative = inhibition, usual class: inhibitors | 310,000 compounds, 3.5% hits; active = well fitted inhibition curve with a large enough effect; inconclusive = small, poorly fitted or top-dose-only effect, or another doubt; inactive = no such curve, though single readings can be large or run the other way;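 note: the enzyme is Sfp with the accession as filed and its product quenches rhodamine fluorescence; potency is the fitted concentration of half-maximal effect; 0% = enzyme reaction without inhibitor and -100% = no enzyme wells; top concentration of the series not given in the record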
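Fluorescence-quenching assay with 15 nM Sfp, 5 uM rhodamine-CoA and 12.5 uM BHQ-2-labelled ybbR peptide in pH 7.6 Hepes/MgCl2 buffer. Enzyme was pre-incubated with compound for 15 min at room temperature. Rate was taken from the 30-min fluorescence change (525/598 nm).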
* hit, by the source's call; ? = inconclusive; nt = not tested or not shown; & = joins results of further samples; [ ] = remark or other dose.

SMILES	TRPML1 blocker	gsp agonist	TRPV1 potentiator	Menin-MLL FL inh	ClpP mod	gsp antagonist	Sfp inh
Cc1ccccc1CN1CCc2c(OCC(=O)N3CCCc4ccccc43)cccc2C1=O	8	-15%	1	6.1	-2.8%	-23%	0%
CCCOC(=O)c1ccc(NC(=O)CCOc2ccccc2)cc1	-2	-4%	2	-0.6	0.0%	?	2%
O=C1CC(/C=C/c2ccccn2)=Nc2ccccc2N1	25	11%[15.4 µM]	3	?	0.8%	-14%	-35%
O=C(O)CSc1cc(C(=O)c2ccccc2O)cn2c(=O)c3c4c(sc3nc12)CCCC4	-4	-3%[15.4 µM]	-18	20	nt	-21%	?
CC(C)[C@@H]1CC[C@@H](C)c2c(-c3ccccc3)n[nH]c21	-9	6%	-4	-0.6	-2.5%	9%	3%
O=C(CCN1CCCCCC1)c1ccccc1	-9	-44%[inhibitor]	-8	-1.3	0.7%	10%	6%
CCOP(=O)(NC12CC3CC(CC(C3)C1)C2)NC12CC3CC(CC(C3)C1)C2	7	-9%	-7	-1.7	nt	8%	9%
O=C(NCC(c1ccco1)N1CCOCC1)c1ccc(Cl)cc1 (stereo not given)	2	27%	-16	nt	-4.3%	5%	nt
CCOC(=O)N1CCN(S(=O)(=O)N2CCCC(C(=O)NCc3ccccc3OCC)C2)CC1 (stereo not given)	14	?	nt	nt	-3.4%	nt	nt
CCC(C)c1ccc(S(=O)(=O)N2CCN(C(=O)c3ccc(Cl)c(S(=O)(=O)N4CCOCC4)c3)CC2)cc1 (stereo not given)	9	7%	nt	nt	-0.3%	-17%	nt
CCOc1ccccc1NC(=O)C(OC(=O)c1ccccc1O)c1ccccc1 (stereo not given)	-7	-9%	13	-0.8	140%	-2%	?
Cc1ccc(/C=C2\NC(=S)NC2=O)cc1[N+](=O)[O-]	-2	-9%	-1	0.2	nt	-11%	2%
CCN(Cc1ccncc1)C(=O)c1ccccc1NS(=O)(=O)c1ccc(F)cc1	-7	?	-1	-3.5	nt	-4%	12%
CCc1ccc(NC(=S)N(Cc2cccc(Br)c2)CC2CCC(C(=O)O)CC2)cc1 (stereo not given)	0	-35%	2	-0.5	-0.8%	?	1%
CC1Cc2ccccc2N1C(=O)CSc1nc(N)cc(=O)[nH]1 (stereo not given)	nt	nt	3	2.1	nt	nt	21%
CC(C)Cc1nnc(NC(=O)C2CCCN(C(=O)c3ccc(Cl)cc3)C2)s1 (stereo not given)	1	-14%	nt	nt	-1.6%	nt	nt
Cc1cc(C)n(CC(=O)N2CCc3ccccc32)c(=O)c1C#N	-14	?	9	nt	nt	4%	11%
C/C(CC(=O)N1CCN(C=O)CC1)=N\NC(=O)c1cc2ccccc2cc1O	4	-19%	6	?	1.6%	-17%	-28%
O=C(Nc1ccc2c(c1)OCO2)c1ccc(Br)c(S(=O)(=O)N2CCCC2)c1	14	29%	-8	3.8	-0.9%	-5%	-11%
COc1ccc(C(=O)NCc2ccccc2)cc1S(=O)(=O)N1CCCc2ccccc21	5	?	13	-0.9	2.3%	-8%	-9%
CCN(CC(=O)Nc1ccccc1C(F)(F)F)C(=O)CCc1c(C)[nH]c(=O)c(C#N)c1C	29	?	9	3.5	nt	7%	8%
O=C(CSc1nnc(CNC(=O)c2ccccc2F)o1)c1ccccc1	-17	14%	-12	1.7	2.7%	-3%	?
CC12CCC(C(=O)NNc3ccc([N+](=O)[O-])cc3)(CC1=O)C2(C)C (stereo not given)	-1	-63%[inhibitor]	5	5.9	-1.8%	1%	-26%
Cc1cccc(NC(=O)c2nc[nH]c2C(=O)N[C@@H](C)C(=O)OCc2ccccc2)c1	2	nt	-12	3.8	1.5%	?	25%
O=C(c1cc(-c2ccccc2Cl)on1)N1CCCC1	19	21%	-11	6.3	nt	-3%	-5%
O=C(COC(=O)C1CC(=O)N(CCc2ccccc2)C1)c1ccc[nH]1 (stereo not given)	-10	17%	4	nt	-3.8%	-10%	nt
Cc1ccnc(NS(=O)(=O)c2ccc(NC(=O)CSc3nc(-c4ccccc4)cc(=O)[nH]3)cc2)n1	40	12%	12	-1.2	-0.5%	4%	35%
Cc1cc(C)c(S(=O)(=O)NCCOc2ccccc2)c(C)c1-n1cnnn1	-18	-9%[15.4 µM]	-4	-0.9	-0.2%	-14%	-13%
O=C1NC(=Nc2ccccc2)S/C1=C\c1cccn1-c1ccccc1	16	10%	11	7.7	4.4%	2%	-15%
CCn1c(C)cc(C(=O)CSc2nnc(-c3ccco3)o2)c1C	1	-1%	15	nt	-0.3%	-2%	nt
Cc1cccc(-c2nnc(SCC(=O)N3CCOCC3)o2)c1	24	-17%	-13	9.1	nt	0%	13%
O=c1cc(O)c2ccc(O)cc2o1	38	-32%[inhibitor]	14	-8.9	4.3%	-1%	-9%
FC(F)(F)c1ccc(N2CCN(Cc3ccc4c(c3)OCO4)CC2)nc1	5	2%	-8	-0.1	-5.3%	2%	-7%
Cc1ccc(NC(=O)Nc2cccc3ccccc23)cc1	-7	7%	-8	nt	-25%	5%	8%
CCN1C(=NCCOC)N[C@@H](c2cccc(C(F)(F)F)c2)C(C(=O)OC)=C1C	12	nt	-2	-3.5	-5.4%	13%	3%
O=C(Nc1nnc(SCc2ccc(F)cc2)s1)c1ccc2ncsc2c1	5	-31%[inhibitor]	-8	1.0	-14%	-6%	1%
CC(C)CNC(=O)c1cccc(NC(=O)c2ccc(Cl)c([N+](=O)[O-])c2)c1	3	?	9	3.3	-2.0%	?	2%
CC(=O)c1ccc(NC(=O)C2CCCN2S(=O)(=O)c2ccc(C)cc2)cc1 (stereo not given)	10	?	-4	4.7	2.2%	-7%	5%
O=C(COC(=O)/C=C/c1ccc(F)cc1)NC1CCCCCC1	1	27%	nt	nt	nt	7%	nt
COc1cc([N+](=O)[O-])ccc1NC(=O)CCCOc1ccccc1	18	-33%[inhibitor]	-4	-4.8	2.1%	-5%	-3%
CC(CNS(=O)(=O)c1ccc(Cl)cc1)n1cncn1 (stereo not given)	19	4%	6	-6.7	nt	13%	14%
Cc1ccc(CNC(=O)COc2ccc(C(=O)c3ccc(F)cc3)cc2)cc1	43	11%[15.4 µM]	1	0.7	-1.4%	15%	4%
CC1=N/C(=C/c2cc(Br)cc(Br)c2O)C(=O)O1	-13	-75%[inhibitor]	14	-1.0	-2.9%	5%	-29%
CCCCn1c(N)c(N(CCC(C)C)C(=O)COC(=O)/C=C/c2ccc(F)cc2)c(=O)[nH]c1=O	-11	-37%	nt	nt	-3.1%	2%	nt
CC(C)(C)OC(=O)C[C@@H]1C/C=C\C[C@H](CC(=O)N(CCO)Cc2ccccc2)C(=O)N[C@@H](Cc2ccccc2)COC1=O	10	-14%	nt	nt	1.9%	-11%	nt
COc1cc(-c2nnn(CC(=O)NC3CCS(=O)(=O)C3)n2)ccc1OCc1ccccc1 (stereo not given)	-6	-57%[inhibitor]	10	-1.1	0.2%	-10%	10%
Cc1c(C(=O)O)oc2ccc(S(=O)(=O)N3CCC(C)CC3)cc12	-13	-30%	-9	1.7	-2.4%	5%	-12%
COc1ccc2nc3sc(C(=O)NCCCN4CCc5ccccc5C4)cc3cc2c1	4	-5%	5	6.2	-23%	-16%	-17%
COC(=O)c1ccc(NC(=O)COC(=O)C2CCC2)cc1	11	-10%[15.4 µM]	-18	nt	nt	-4%	nt
COc1ccc2nc(N(CCN(C)C)C(=O)/C=C/c3cccs3)sc2c1	-5	-49%[inhibitor]	13	-8.7	1.1%	-9%	-3%
CCOC(=O)Cn1c(=O)c(-c2cc(Br)ccc2N)nc2ccccc21	10	4%	-3	?	0.1%	10%	13%
CCN1CCCC1CNC(=O)C(=O)NC(C)C (stereo not given)	4	-15%[15.4 µM]	-6	4.1	nt	-2%	-7%
O=C(O)CCN1C(=O)c2ccc(Oc3ccc([N+](=O)[O-])cc3)cc2C1=O	-7	9%[15.4 µM]	-1	-1.3	-0.7%	-17%	11%
COC(=O)c1cc(Br)c(=O)n(Cc2ccc(OC)c(OC)c2)c1	-11	29%	-6	1.9	-2.4%	-1%	5%
COc1cc(C(=O)N/N=C/c2ccc(OC(=O)c3ccccc3Cl)c(OC)c2)ccc1O	27	?	6	2.7	-0.6%	?	6%
COc1cc2cnc(CCCC#N)cc2cc1OC	-11	-9%	nt	nt	-8.6%	19%	nt
CCOc1ccsc1C(=O)NNC(=O)c1ccco1	23	?	2	nt	-0.6%	1%	18%
Cc1ccc2c(Cn3cc(C(F)(F)F)cc(Cl)c3=O)cc(=O)oc2c1	nt	nt	3	7.4	nt	nt	10%
COc1cccc(C(=O)N2CCCN(C)CC2)c1OC	7	33%	27	-8.7	nt	7%	16%
C/C(=N\NC(=O)Cn1nnc2ccccc21)c1ccco1	22	-10%	-2	0.4	-1.4%	7%	13%

Next part
SMILES	TRPML1 blocker	gsp agonist	TRPV1 potentiator	Menin-MLL FL inh	ClpP mod	gsp antagonist	Sfp inh
COC(=O)c1ccc2c(=O)n(CCCCCC(=O)NCc3ccccc3)c(=O)[nH]c2c1	-4&-6	-29%	14	2.1	?	4%	-15%
CN(C)S(=O)(=O)c1cccc(C(=O)N2CCN(Cc3ccccc3)CC2)c1	1	-8%	-9	6.8	0.8%	-2%	13%
CCN(CC)S(=O)(=O)c1ccc2nc(COC(=O)c3n[nH]c4ccccc34)[nH]c2c1	2	7%	2	7.3	-28%	1%	15%
COCCN=C1N[C@@H](c2ccc(Br)cc2)C(C(=O)OC)=C(C)N1Cc1ccccc1	-6	nt	4&-7	-5.0&-7.2	-3.2%	2%	16%&-3%
